Cruzain noTriton – cruzain (T. cruzi) inhibition without detergent; P25779; AID 1476; purified cruzain, Z-FR-AMC fluorescence, no detergent; Potency, µM, for inactives: max response, negative = inhibition, actives largely listed as inhibitors; 200,000 tested, 2.3% active;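 also: plate controls were enzyme without inhibitor for no effect and buffer without enzyme for full effect; nearly all actives have a fitted effect of over 40% in size; top concentration of the series not given in the record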
Target sequence (P25779 123-467 limits assumed): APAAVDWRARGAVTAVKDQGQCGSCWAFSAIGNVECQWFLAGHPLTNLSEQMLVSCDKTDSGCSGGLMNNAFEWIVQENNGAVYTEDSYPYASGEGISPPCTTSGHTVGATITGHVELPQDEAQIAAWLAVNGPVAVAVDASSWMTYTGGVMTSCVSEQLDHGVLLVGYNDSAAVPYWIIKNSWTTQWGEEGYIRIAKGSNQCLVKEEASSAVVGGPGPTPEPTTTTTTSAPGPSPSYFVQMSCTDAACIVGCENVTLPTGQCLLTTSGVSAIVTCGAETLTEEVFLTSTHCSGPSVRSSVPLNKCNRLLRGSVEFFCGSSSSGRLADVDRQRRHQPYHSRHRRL
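Detergent-free condition (0.00005% Triton X-100) in acetate buffer pH 5.5 with DTT. 1.5 nM enzyme and compound were pre-mixed 15 min, then 2 uM Z-FR-AMC substrate added; reaction progress from fluorescence change between first and third reads (60 s).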
StopGo reporter – FMDV 2A StopGo reporter, luciferase signal | Potency, µM (top dose mostly 57.9 µM), for the others: top-dose signal change, negative = less light | 410,000 tested, 1.2% active | human cells with a luciferase reporter of 2A StopGo recoding; control for the full effect not named in the record; active = well fitted falling curve with a large enough effect; inconclusive = small, poorly fitted or top-dose-only effect; inactive = no such curve, though single readings can be large or run the other way; tested in HEK293T cells; also: % is scaled to controls: 0 for no effect and ±100 for the full control effect; nearly all actives have a fitted effect of over 45% in size; luciferase light after 4 h
Cruzain inh Det – blocks cruzain activity in presence of Triton detergent | Potency, µM, for inactives: max response, negative = inhibition, hits mostly inhibitors | 200,000 tested, 0.43% active | AID 1478 | purified cruzain, Z-FR-AMC fluorescence, 0.01% Triton;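 also: plate controls were neutral wells for no effect and buffer without enzyme for full effect; nearly all actives have a fitted effect of over 40% in size; top concentration of the series not given in the record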
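Compounds were screened in titration against cruzain (1.5 nM) with 0.01% Triton X-100 to counter colloidal aggregation. Activity was the AMC fluorescence increase over 60 s after adding 2 uM Z-FR-AMC at pH 5.5.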
Lassa entry inh – blocks Lassa virus binding to or entry into cells; Lassa virus pseudotype entry inhibition, cell reporter; control for the full effect not named in the record; Potency, µM (series often up to 37.9 µM), inactives show at the top dose activity change, negative = inhibition, actives largely listed as inhibitors; 300,000 tested, 1.2% active; AID 540256; active means well fitted inhibition curve with a large enough effect; inconclusive means small, poorly fitted or top-dose-only effect, or effect the other way; inactive means flat fitted curve, though single readings scatter; tested in HEK293 cells; also: % is scaled to controls: 0 for no effect and ±100 for the full control effect; nearly all actives have a fitted effect of over 50% in size; luciferase read-out
NS1 function inh – inhibitors of influenza NS1 protein function; 270,000 tested, 0.4% active; S. cerevisiae slowed by influenza A NS1, growth recovery by OD600; Potency, µM (top dose mostly 46.1 µM), for the others: top-dose activity, positive = more growth; active means well fitted rising curve with a large enough effect; inconclusive means small, poorly fitted or top-dose-only effect; inactive means no such curve, though single readings can be large or run the other way; also: nearly all actives have a fitted effect of over 50% in size
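In this qHTS, NS1 from influenza A is expressed in budding yeast, where it slows growth. Cells are switched from glucose to 2% galactose medium (pH 6.0, -URA), treated with compound, and growth recovery is read at OD600.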
SARS PLP yeast – blocks SARS-CoV papain-like protease in a yeast assay. S. cerevisiae expressing SARS-CoV PLpro, growth rescue; control for the full effect not named in the record. Potency, µM (titrated, usually from 32.9 µM), for inactives: top-dose activity, positive = growth rescue. 330,000 tested, 0.19% active. AID 485353; active means well fitted rising curve with a large enough effect; inconclusive means small, poorly fitted or top-dose-only effect; inactive means no such curve, though single readings can be large or run the other way; also: 0% is about no effect; nearly all actives have a fitted effect of over 55% in size; growth read by luminescence after 48 h
RE007 growth inh – less growth of the S. pombe RE007 Vpr strain | AID 651644 | S. pombe RE007 Vpr strain, BacTiter-Glo ATP luminescence, 24 h; control for the full effect not named in the record | Potency, µM (doses to about 92.2 µM), without a hit: at the highest dose activity change, negative = less growth | 360,000 tested, 0.21% active; active = well fitted falling curve with a large enough effect; inconclusive = small, poorly fitted or top-dose-only effect; inactive = no such curve, though single readings can be large or run the other way;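 also: % is scaled to controls: 0 for no effect and ±100 for the full control effect; nearly all actives have a fitted effect of over 50% in size; the assay follows cell death caused by Vpr and the record does not say whether a fall means rescue or toxicity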
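Fission yeast RE007 carrying one integrated HIV-1 vpr copy, seeded at OD 0.01 in PMG+AL medium with 23 nL pinned compound. Grown 24 h at 30 degrees; viability read by BacTiter-Glo luminescence after 5 min.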
MARV entry inh – blocks Marburg virus binding to or entry into cells; Marburg virus pseudotyped entry inhibition, cell reporter; control for the full effect not named in the record; about a third of the inactives were read at about 46 µM; Potency, µM (highest dose often 37.8 µM), without a hit: top-dose activity change, negative = inhibition, most hits filed as inhibitors; 300,000 tested, 1.8% active; active = well fitted inhibition curve with a large enough effect; inconclusive = small, poorly fitted or top-dose-only effect, or effect the other way; inactive = flat fitted curve, though single readings scatter; tested in HEK293 cells; about a fifth of its hits are not listed in these tables; also: % is scaled to controls: 0 for no effect and ±100 for the full control effect; luciferase read-out
Numbers without * were called inactive; ? = inconclusive; . = not tested or not shown; & = joins results of further samples; [ ] = dose if it differs, or a comment. Unless noted, calls follow the shape of the dose curve; as a rule, active = well fitted curve in the direction sought with a large enough effect; inconclusive = small, poorly fitted or top-dose-only effect, or another doubt; inactive = no such curve, though single readings can be large; an effect the other way counts as inactive or inconclusive. Potency is read from the fitted curve at half-maximal effect.

SMILES	NS1 function inh	Lassa entry inh	StopGo reporter	SARS PLP yeast	RE007 growth inh	Cruzain inh Det	MARV entry inh	Cruzain noTriton
CCn1ccc2cc(S(=O)(=O)N3CCC(C(=O)NCCc4ccc(SC)cc4)CC3)ccc21	.	-4.1%[46.1 µM]	-19.3%	.	.	-1.7%	.	-12.4%
CCOc1nc(NCCO)nc(Nc2ccc([N+](=O)[O-])cc2)n1	-2.6%	-4.3%	-21.8%	5.6%	0.8%	-5.5%	3.9%	-17.5%
Cc1ccc(S(=O)(=O)N2CCOCC2)cc1NC(=O)COC(=O)CNC(=O)c1ccc(Cl)cc1Cl	-3.0%	9.4%	-12.2%	.	-0.7%	.	23.7%	.
CNC(=S)NNC(=O)c1cccn(Cc2ccccc2)c1=O	-5.5%	1.9%[46.1 µM]	5.7%	5.2%	3.3%	.	?	.
O=C(O)/C=C/C(=O)Nc1nccs1	2.8%	21.3%[46.1 µM]	-3.9%	0.3%	-12.6%	.	0.6%[46.1 µM]	.
O=C(CCc1ccccc1)NNC(=S)NCc1ccc(Cl)cc1	-15.2%	.	-3.2%	-3.5%	-1.0%	.	.	.
CCOc1ccc(N(CC(=O)NCc2ccco2)S(C)(=O)=O)cc1	-1.5%	12.9%	23.2%	0.8%	7.9%	2.0%	22.0%	1.8%
CCOP(=O)(OCC)C(O)c1ccc(Br)cc1 (stereo not given)	0.8%	0.4%	-5.5%	-12.2%	-0.4%	-2.2%	-3.1%	-5.1%
COc1ccc(C)cc1NC(=O)c1cc2c(CO)cnc(C)c2oc1=N	0.8%	2.1%	-23.1%	-1.3%	-3.2%	-0.6%	13.1%	7.1%
COC(=O)c1ccc(-c2ccc(Cl)cc2)nc1C	-23.2%	?	-37.6%	-7.4%	.	-3.5%	?	-4.9%
CN1C(N)=NC(=O)/C1=C/c1ccccc1F	.	3.4%	12.2%	0.2%	-2.1%	.	-11.1%[46.1 µM]	.
CCn1c(COc2ccc(C)cc2)nnc1SCC(=O)Nc1ccc(S(N)(=O)=O)cc1	-2.5%	-0.8%	-7.9%	-2.7%	17.8%	3.7%	?	15.5%
CCCCn1c(SCC(=O)N2CCCC2)nc2c1c(=O)n(C)c(=O)n2C	0.3%	-12.9%	-0.7%	2.2%	-12.4%	3.7%	-21.7%	-8.5%
COc1ccc(NC(=O)CN(C)C(=O)CSCC(=O)Nc2ccc(C)cc2)cc1	.	-1.8%	14.5%	-2.8%	-3.4%	.	28.7%	.
CCCCC(CC)C(=O)Nc1ccc(C#N)cc1 (stereo not given)	-5.7%	-1.2%	-5.6%	-3.3%	2.1%	-2.7%	7.9%	-9.5%
CCN(CC)CCOC(=O)c1ccc(N/C=C(/C#N)c2nc(-c3cc4ccccc4oc3=O)cs2)cc1	-1.5%	?	7.9%	-1.7%	-5.0%	.	5.4%[46.1 µM]	.
COc1ccc2c(c1)c(C(=O)CN1CCc3ccccc3C1)c(C)n2C	-6.6%	.	-29.5%	-0.1%	-11.8%	.	.	.
CCOC(=O)c1c(C)oc2c1c(C=NCc1ccccn1)c(O)c1ccccc12	-40.9%	14.1µM*	-22.2%	-12.9%	-6.0%	-7.7%	?	?
CCCC(=O)Nc1cc(C)c(NC(=O)Cc2ccccc2)cn1	-0.5%	.	.	-2.8%	.	4.8%	.	-0.4%
O=C(Cn1cnnn1)Nc1cccc(S(=O)(=O)N2CCCCC2)c1	.	-2.7%	-10.6%	0.8%	6.5%	.	0.6%[46.1 µM]	.
CSc1ccccc1NC(=O)Nc1cccc2ccccc12	15.6%	.	13.0%	-0.2%	14.5%	.	.	.
NC(=O)c1ccccc1OCC(=O)Nc1ccc(Cl)c(Cl)c1	-4.9%	.	8.8%	-1.7%	-4.2%	.	.	.
C=CCNC(=O)C(=O)N/N=C/c1cccc(Br)c1	-1.2%	2.0%[46.1 µM]	23.8%	0.3%	-10.7%	.	9.2%[46.1 µM]	.
CCCNC1CCS(=O)(=O)C1 (stereo not given)	-2.6%	-12.3%	12.7%	0.5%	13.6%	1.2%	11.7%[46.1 µM]	-2.4%
O=c1c2cnn(-c3ccc(F)cc3)c2ncn1Cc1ccccc1	1.6%	?	-16.8%	?	-7.0%	-0.3%	5.4%	?
O=C(N/N=C/c1ccccc1)c1sccc1OCc1ccc(F)cc1	-53.0%	-12.2%	-9.5%	-3.0%	5.8%	-7.3%	?	8.8%
O=C(CC1COc2ccccc2O1)Nc1ccccn1 (stereo not given)	-0.7%	17.5%	19.2%	-1.4%	33.0%	5.4%	-1.3%	-0.5%
Nc1nc(NCCCN2CCOCC2)nc(Nc2cccc(F)c2)c1[N+](=O)[O-]	5.0%	3.9%[46.1 µM]	-8.9%	0.3%	-15.6%	.	?	.
COc1ccc(-c2csc(COC(=O)C(C)(C)C)n2)cc1	-0.4%	15.3%	11.3%	-1.8%	3.8%	.	-0.9%	.
CCOC(=O)c1ccc(NC(=O)CCCn2c(=O)c3cccn3c3cccnc32)cc1	.	-29.2%[46.1 µM]	-5.6%	.	.	-1.2%	.	-0.7%

Retrieved one by one from above (three):
SMILES	NS1 function inh	Lassa entry inh	StopGo reporter	SARS PLP yeast	RE007 growth inh	Cruzain inh Det	MARV entry inh	Cruzain noTriton
CCCNC1CCS(=O)(=O)C1 (stereo not given)	-2.6%	-12.3%	12.7%	0.5%	13.6%	1.2%	11.7%[46.1 µM]	-2.4%
COc1ccc(NC(=O)CN(C)C(=O)CSCC(=O)Nc2ccc(C)cc2)cc1	.	-1.8%	14.5%	-2.8%	-3.4%	.	28.7%	.
CCOP(=O)(OCC)C(O)c1ccc(Br)cc1 (stereo not given)	0.8%	0.4%	-5.5%	-12.2%	-0.4%	-2.2%	-3.1%	-5.1%

Next section:
SMILES	NS1 function inh	Lassa entry inh	StopGo reporter	SARS PLP yeast	RE007 growth inh	Cruzain inh Det	MARV entry inh	Cruzain noTriton
CCn1c(SCc2c(Cl)cccc2Cl)nnc1-c1nn(-c2ccccc2)ccc1=O	-0.8%	-2.9%	12.6%	-17.2%	2.8%	-0.8%	-11.9%	8.5%
CCOP(=O)(OCC)C(NC(=O)CN1C(=O)c2ccccc2S1(=O)=O)C(Cl)(Cl)Cl (stereo not given)	7.6%	6.4%	-19.1%	3.0%	4.3%	-2.1%	?	-10.4%
Cc1nnc2n1N=C(c1ccccc1)CS2	3.7%	.	-6.5%	-0.2%	11.6%	.	.	.
Cc1ccccc1NC(=O)Cn1cc(S(=O)(=O)N2CCCC2)c(S(=O)(=O)N2CCCC2)c1	.	18.2%[46.1 µM]	-5.8%	.	.	-1.9%	.	9.3%
CC(/C=N/NC(=O)c1cc(-c2cccs2)[nH]n1)=C\c1ccccc1	0.6%	.	1.8%	7.6%	7.9%	-5.7%	.	9.0%
CC(C)(C)C(=O)Cn1ncc(N2CCCC2)c(Br)c1=O	2.8%	0.4%	25.0%	6.6%	0.9%	-2.4%	?	-0.5%
Cc1cc(OC(=O)c2cccc(C(F)(F)F)c2)c([N+](=O)[O-])c(=O)[nH]1	-10.8%	.	-14.3%	-1.2%	-15.0%	.	.	.
COc1ccc(NC(=O)CN(Cc2ccccc2)S(=O)(=O)c2ccc3nc(C)sc3c2)cc1	.	-15.4%[46.1 µM]	-21.2%	.	.	-3.5%	.	?
O=C(C1CCCCC1)N1CCN(C(=O)C2CCCCC2)CC1	0.3%	?	.	-0.9%	-13.4%	4.7%	3.3%	1.6%
CCCOc1ccc(N)cc1N	-3.6%	?	-0.1%	-14.1%	-19.4%	-20.6%	?	-18.4%
COc1ccc(CNC(=O)CN(C)Cc2ccc(SC)cc2)cc1	-8.4%	?	-8.7%	-4.5%	-12.0%	.	-12.6%[46.1 µM]	.
Cc1cc(C)cc(NC(=O)CCc2c(C)nc3c(c2C)c(=O)n(C)c(=O)n3C)c1	.	?	?	.	.	3.8%	2.6%[46.1 µM]	2.9%
Cc1ccc(N/N=C2\COC(C)(C)CC2=O)cc1	-14.4%	-3.4%	42.3%[activator]	-3.1%	10.4%	?	26.3%	-24.9%
CCOC(=O)CNC(=O)CSc1nc(NCc2ccccc2)nc(N(C)C)n1	-7.1%	?	-25.9%	2.7%	-4.6%	1.0%	-7.5%[46.1 µM]	4.6%
Cc1ccccc1CNC(=O)c1ccccc1	8.2%	1.0%	.	12.9%	-14.0%	2.0%	1.7%	-16.5%
Cc1nnc(NC(=O)Cc2ccc(OCc3c(C)noc3C)cc2)s1	8.0%	?	9.6%	-1.9%	-10.7%	4.3%	-15.2%	-12.7%
CCOC(=O)C1=C(O)C(=O)N(Cc2ccccc2)C1	3.5%	.	-23.4%&-10.3%	0.3%	-1.5%	-0.7%	.	-3.3%
Cc1ccccc1NC(=O)Cc1nc(COC(=O)c2ncc(Cl)c(Cl)c2Cl)cs1	.	-19.6%	-8.0%	.	-12.3%	.	13.1%[46.1 µM]	.
O=C(C=Cc1ccco1)c1ccc([N+](=O)[O-])cc1	.	5.7%[46.1 µM]	-2.0%	.	-12.6%	.	-20.9%[46.1 µM]	.
CC(C)NC(=S)Nc1cccc2cnccc12	11.0%	?	-7.6%	6.2%	-13.6%	-3.1%	2.8%	-15.1%
O=C(NC1=NCCS1)c1cccc2ccccc12	.	-0.3%	54.1%[activator]	-25.7%	?	.	?	.
O=C(NNC(=S)Nc1ccc(C(=O)O)c(O)c1)c1ccncc1	.	-25.0%[46.1 µM]	12.6µM*	.	13.2%	.	?	.
O=C(CCN1CCOCC1)NNC(=O)Nc1cccc([N+](=O)[O-])c1	3.3%	2.6%	6.2%	1.2%	15.2%	.	?	.

No enrichment for hits; any-hit rate near 4.6%.
